# UUG fidelity = yeast start codon fidelity modulation; 350,000 compounds, 0.13% hits; S. cerevisiae UUG-firefly luciferase reporter, luminescence/redox ratio; AID 602363; activity score, % at 18.7 µM;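 active = replicate mean at a twofold rise or more, about +100% in these data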;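 note: firefly luciferase made from a UUG start codon reports start codon fidelity; reporter light over untreated wells divided by growth signal over untreated wells; some hits fall short of that in this replicate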
# PABP polyA inh = blocks human PABP binding to poly(A) RNA. P11940. fluorescence polarization. inhibition, % at 35 µM. 290,000 compounds, 1% hits. AID 2014;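 active = 50% or more with normal probe brightness, or confirmed in later tests; inconclusive = above 50% with abnormal brightness, or retests that disagree; inactive = below 50% or failed in later tests; about a fifth of its hits are not listed in these tables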;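 note: calls also rest on retests at 20 µM and on dose response follow-up; controls were probe without protein and protein plus probe with vehicle; some compounds called inactive have numbers as strong as hits; many hits fall short of the cut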
# Target sequence (P11940 whole entry, looked up): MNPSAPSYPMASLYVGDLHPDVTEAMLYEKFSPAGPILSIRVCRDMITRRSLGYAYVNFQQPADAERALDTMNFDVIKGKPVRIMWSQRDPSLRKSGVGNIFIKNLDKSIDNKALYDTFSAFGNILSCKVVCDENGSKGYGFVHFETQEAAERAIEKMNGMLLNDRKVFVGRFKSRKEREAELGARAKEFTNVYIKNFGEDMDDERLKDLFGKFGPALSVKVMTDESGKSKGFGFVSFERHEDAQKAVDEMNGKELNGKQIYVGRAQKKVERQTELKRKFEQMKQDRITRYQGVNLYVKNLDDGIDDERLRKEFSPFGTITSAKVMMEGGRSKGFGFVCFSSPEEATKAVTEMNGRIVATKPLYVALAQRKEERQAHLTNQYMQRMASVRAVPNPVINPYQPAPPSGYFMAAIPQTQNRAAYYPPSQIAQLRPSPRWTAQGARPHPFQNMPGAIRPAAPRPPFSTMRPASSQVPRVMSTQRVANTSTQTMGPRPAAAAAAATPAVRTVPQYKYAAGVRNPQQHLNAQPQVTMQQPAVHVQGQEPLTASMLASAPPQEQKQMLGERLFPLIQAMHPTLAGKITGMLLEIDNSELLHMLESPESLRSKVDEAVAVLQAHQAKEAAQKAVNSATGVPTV
# HIV Env fusion = blocks HIV Env-driven cell-cell fusion | 360,000 compounds, 1.1% hits | AID 651610 | HeLa-JRFL Env/CEM21 cell fusion, luciferase | inhibition, % at 12.3 µM;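 active = mean replicate inhibition score of at least 50 and every replicate individually at or above 50; inconclusive = only one of the two criteria met; inactive = mean below 50 and not all replicates reaching 50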;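 note: 0% = plate neutral controls and 100% = maraviroc near 300 nM; one replicate is shown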
# Rce1 inhib = yeast Ras-converting enzyme inhibition; AID 2563; 290,000 compounds, 0.27% hits; calls only; Q03530; yeast membranes, quenched prenylated peptide cleavage fluorescence;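 active = fall in fluorescence gain of 50% or more versus controls, with final raw signal at or below 3038400; inconclusive = same 50% fall but final raw signal above 3038400; inactive = fall in fluorescence gain under 50%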;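 note: plate controls were neutral control wells for no effect and wells lacking membranes for full effect; tested at 10 µM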
# Target sequence (Q03530 whole entry, looked up): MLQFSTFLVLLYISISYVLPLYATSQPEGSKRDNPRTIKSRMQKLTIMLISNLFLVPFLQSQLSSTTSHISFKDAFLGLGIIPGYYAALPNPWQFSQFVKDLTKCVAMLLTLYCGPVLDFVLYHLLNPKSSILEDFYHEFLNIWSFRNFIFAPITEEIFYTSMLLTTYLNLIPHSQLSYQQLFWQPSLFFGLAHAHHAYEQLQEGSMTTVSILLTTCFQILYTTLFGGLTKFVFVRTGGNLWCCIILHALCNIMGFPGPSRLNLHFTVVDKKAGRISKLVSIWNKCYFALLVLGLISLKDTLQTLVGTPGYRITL
# MT1-MMP act inh = blocks activation of human MT1-MMP; P50281; HT1080 RFP-PRO-GFP cells, GFP/RFP ratio fluorescence, overnight; percent of plate control window, DMSO zero; GFP/RFP ratio change, % at 20 µM; 360,000 compounds, 0.061% hits;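 active = GFP/RFP ratio change of at least 30% with cell ATP level not reduced by more than half and red fluorescence within 50% of control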; note: strong numbers were not always called active
#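 Compound: 20 µM single dose, 1% DMSO / System: HT1080 RFP-PRO-GFP cells / Controls: DMSO and RFP-L50D-GFP cell wells / Read-out basis: GFP/RFP fluorescence ratio / Schedule: overnight compound exposure at 37 °C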
# eIF4H FP inh = inhibitors of RNA binding by human eIF4H; Q15056; eIF4H fluorescence polarization binding assay; inhibition, % at 35 µM; 290,000 compounds, 0.94% hits;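 active = 50% or more with normal probe brightness, or confirmed in later tests; inconclusive = above 50% with abnormal brightness, or retests that disagree; inactive = below 50% or failed in later tests; about a fifth of its hits are not listed in these tables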;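 note: calls also rest on retests at 20 µM and on dose response follow-up; 0% = protein and probe with vehicle and 100% = probe without protein; strong numbers were not always called active; many hits fall short of the cut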
# CSC inhib = cancer stem cell inhibition; cancer stem cell-like cells viability, luminescence; inhibition, % at 7.5 µM; 300,000 compounds, 1.1% hits; AID 2717;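 active = mean at 75% or more and at least half the replicates too; inconclusive = mean and replicates disagree; tested in HMLE shEcad cells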;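 note: 0% = median of negative and 100% = median of positive control wells; the first replicate is given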
# MT1-MMP act inh RFP = also measured in MT1-MMP act inh; calls as there; RFP signal change, %; measured here: RFP expression control read;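 0 = vehicle wells; hits needed this value within 50% of zero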
# Starred values were filed as active, the others as inactive; i = inactive; ? = inconclusive; . = no result given. Not a hit list (roughly 2.9% active in at least one column).
no.	SMILES	PABP polyA inh	MT1-MMP act inh RFP	HIV Env fusion	CSC inhib
1	CCn1c(SCC(=O)NC2=NCCS2)nnc1C(C)NC(=O)c1ccccc1F (stereo unspecified)	1	3	6	-3
2	CC(NS(=O)(=O)c1ccc(F)cc1)C(c1cccs1)N1CCN(C)CC1 (stereo unspecified)	-3	-2	.	-6
3	Cc1ccc(-n2c(O)c(C=Nc3ccccc3-c3n[nH]c(=S)[nH]c3=O)c3ccccc3c2=O)c(C)c1	-3	-4	20	12
4	CCc1ccc(OCCSc2nc3ccccc3n2CCC(=O)O)cc1	1	0	22	-7
5	Cc1ccc(C)n1-c1ccsc1C(=O)CC#N	4	2	-4	6
6	COC(=O)/N=C/c1c(NCc2ccccc2)nc2c(C)cccn2c1=O	5	6	5	-4
7	Cc1cccc(C(=O)N2CCN(c3ccccn3)CC2)c1	-12	1	.	-12
8	COc1ccccc1Cn1c(=S)[nH]c2cc(C(=O)NCCN3CCOCC3)ccc2c1=O	-1	-4	-86	32
9	CCN1C(=Nc2ccc(Cl)cc2)SC/C1=C\C(=O)OC	8	-4	.	14
10	O=C(Cn1ccc2ccccc2c1=O)NCCC(=O)Nc1cccnc1	-4	4	-18	-12
11	O=C(CSc1ccc2nnc(-c3ccc(F)cc3)n2n1)NCc1ccco1	-5	4	.	.
12	O=C(c1ccccc1)N(c1ccccc1)c1nccc2ccccc12	.	3	-13	.

no.	MT1-MMP act inh	Rce1 inhib	eIF4H FP inh	UUG fidelity
1	-3	i	-4	-11
2	-7	i	-3	.
3	3	i	9	.
4	4	i	5	-17
5	-2	i	26	-15
6	9	i	-5	3
7	1	i	-11	-18
8	2	i	-3	-16
9	2	i	4	-8
10	4	i	4	-6
11	0	i	4	-12
12	1	.	.	-16

# (cont.)
no.	SMILES	PABP polyA inh	MT1-MMP act inh RFP	HIV Env fusion	CSC inhib
13	CC1CCCN(c2ccc(C(=O)NCC3CCCO3)cn2)C1 (stereo unspecified)	1	0	.	-7
14	c1ccc(COc2ccc(-c3cc4nc(NCCCn5ccnc5)ccn4n3)cc2)cc1	.	-11	-14	.
15	CCNC(=O)C1CCCN1S(=O)(=O)c1ccc(OC)cc1 (stereo unspecified)	0	-2	1	-6
16	O=C(c1ccccc1)n1ccc(-c2cccs2)n1	0	2	-5	-5
17	O=c1[nH]c(CN2CCN(CCO)CC2)nc2ccccc12	-12	6	.	-5
18	O=C(COC(=O)c1ccco1)NNC(=O)c1ccc(Cl)cc1	.	7	.	-19
19	O=C1CCC(=O)N1CC(=O)N1CCCc2ccccc21	5	3	16	.
20	CCCCNC(=O)c1ccc2nc(CC)c(N(C)Cc3ccc(OC)cc3)n2c1	.	-2	10	.
21	CC[C@H](C)C(=O)N[C@H]1CCCN1C(=O)/C=C/c1ccccc1	.	4	-6	-17
22	C[C@@H]1NS(=O)(=O)[C@H]2C[C@@H]3C=C[C@]2(O3)[C@H]1OC(=O)Nc1ccc(C(F)(F)F)cc1[N+](=O)[O-]	.	-1	-5	-10
23	c1ccc(-c2ccc3c(c2)c2c4n3CCN=C4CCC2)cc1	-6	3	60*	.
24	CCOC(=O)C1CCN(c2nnc(N3CCCC3=O)s2)CC1	4	6	.	-4

no.	MT1-MMP act inh	Rce1 inhib	eIF4H FP inh	UUG fidelity
13	-3	i	-11	-28
14	4	.	.	-21
15	0	i	-7	-8
16	0	i	-7	.
17	5	i	-2	-13
18	4	.	.	-6
19	1	i	3	-11
20	-2	.	.	-30
21	4	.	.	-8
22	-2	.	.	5
23	-8	i	-3	0
24	2	i	-1	-13

# Next results follow:
no.	SMILES	PABP polyA inh	MT1-MMP act inh RFP	HIV Env fusion	CSC inhib
25	COCCNS(=O)(=O)c1cc(-c2nn(C)c(=O)c3ccccc23)ccc1C	-9	5	.	-3
26	Cc1cc(C(=O)N2CCCC(C(=O)c3ccc(Cl)cc3C)C2)no1 (stereo unspecified)	3	-2	61*	-6
27	O=C(NCc1ccc(Cl)cc1)C1CCC(CNc2c(N3CCCCC3)c(=O)c2=O)CC1 (stereo unspecified)	4	3	24	-5
28	CC(C)(C)OC(=O)NCC12C=CC(O1)C1C(=O)N(Cc3ccccc3)C(=O)C12 (stereo unspecified)	0	1	.	-6
29	Cc1ccc(NC(=O)c2ccc(-c3nn(C)c(=O)c4ccccc34)cc2)c(C)c1	-2	-3	22	4
30	CC(=O)Cc1nsc(NC(=O)c2cc(-c3cccc(C(F)(F)F)c3)oc2C)n1	0	-5	19	-5
31	CN(C(=O)COC(=O)c1cc(S(=O)(=O)N2CCCCC2)ccc1Cl)c1ccccc1	.	1	24	.
32	COc1cc(OC)cc(C(=O)NCCNC(=O)c2ccccc2)c1	1	-3	-27	-5
33	CN1C(=O)NC(c2cccc([N+](=O)[O-])c2)C2=C1CCCC2=O (stereo unspecified)	2	4	8	-11
34	CC1CN(C(=O)C(C)OC(=O)c2ccc3ncsc3c2)CC(C)O1 (stereo unspecified)	.	4	2	.
35	Cc1cccc(C)c1N(CC(=O)N1CCN(c2ccccc2F)CC1)S(C)(=O)=O	-3	-3	-1	-14
36	CC1(C(=O)NCc2ccc3c(c2)OCO3)CCN1C(=O)Cc1cccs1 (stereo unspecified)	.	-1	2	.

no.	MT1-MMP act inh	Rce1 inhib	eIF4H FP inh	UUG fidelity
25	5	i	13	-5
26	0	.	-4	-12
27	3	i	4	-6
28	-2	i	-12	-22
29	3	i	-2	-14
30	-1	i	-5	-5
31	0	.	.	14
32	-3	i	1	-10
33	-1	i	-9	-14
34	1	.	.	-22
35	2	i	-8	.
36	-4	.	.	-7

# Two entries from above, bar-delimited.
nr | molecule | PABP polyA inh | MT1-MMP act inh RFP | HIV Env fusion | CSC inhib | MT1-MMP act inh | Rce1 inhib | eIF4H FP inh | UUG fidelity
33 | CN1C(=O)NC(c2cccc([N+](=O)[O-])c2)C2=C1CCCC2=O (stereo unspecified) | 2 | 4 | 8 | -11 | -1 | i | -9 | -14
34 | CC1CN(C(=O)C(C)OC(=O)c2ccc3ncsc3c2)CC(C)O1 (stereo unspecified) | . | 4 | 2 | . | 1 | . | . | -22

# Further compounds follow:
no.	SMILES	PABP polyA inh	MT1-MMP act inh RFP	HIV Env fusion	CSC inhib
37	C=CCc1ccccc1OCC(O)CN(CC)CC (stereo unspecified)	21	1	.	2
38	CCSC1=N/C(=C\c2ccccc2)C(=O)N1c1ccc(OC)cc1	10	-5	-7	4
39	O=C(NN=Cc1cccc2ccccc12)C(=O)NN=Cc1cccc2ccccc12	.	0	1	.
40	O=C(c1cccc(F)c1)N1CCCc2ccccc21	5	7	0	-6
41	Cc1ccc(CNc2cnccn2)cc1	5	-2	-1	-13
42	Oc1ccc(C2=NNC(c3ccc(O)cc3)=NN2)cc1	-7	3	-24	-14
43	CC1CC(C)CN(CCCNS(=O)(=O)c2ccc3c(c2)oc(=O)n3C)C1 (stereo unspecified)	?	4	16	-18
44	CO[C@@H]1CN(C)C(=O)c2cc(NC(=O)Nc3ccc4c(c3)OCO4)ccc2OC[C@@H](C)N(C)C[C@H]1C	.	4	-22	.
45	CCCOc1ccc(F)cc1-c1cc(C(=O)Nc2ccc(C(C)C)cc2)[nH]n1	.	-6	-31	.
46	CCOC(=O)C1CCN(S(=O)(=O)c2ccc(-c3cc(C(F)(F)F)n(C)n3)s2)CC1	-4	-4	-3	4
47	COc1cc(CN(C(=O)c2cccs2)C2CCS(=O)(=O)C2)cc(OC)c1OC (stereo unspecified)	8	1	-2	.
48	Cc1ccc(C)c(N2CCN(C(=O)CCc3nc(-c4cccc(Cl)c4)no3)CC2)c1	.	-2	-59	.

no.	MT1-MMP act inh	Rce1 inhib	eIF4H FP inh	UUG fidelity
37	8	i	0	-24
38	1	i	7	-1
39	2	.	.	-17
40	3	i	-4	9
41	1	i	0	-8
42	2	i	-16	-18
43	-30	i	?	-4
44	-3	.	.	-10
45	0	.	.	-9
46	-6	i	1	-13
47	-2	i	-2	-5
48	-1	.	.	-14

# Compound profiles (already shown). Order of screens: PABP polyA inh, MT1-MMP act inh RFP, HIV Env fusion, CSC inhib, MT1-MMP act inh, Rce1 inhib, eIF4H FP inh, UUG fidelity
# Cc1ccc(C)c(N2CCN(C(=O)CCc3nc(-c4cccc(Cl)c4)no3)CC2)c1 in the list: ., -2, -59, ., -1, ., ., -14
# O=C(c1cccc(F)c1)N1CCCc2ccccc21 in the list: 5, 7, 0, -6, 3, i, -4, 9

# Continuation.
no.	SMILES	PABP polyA inh	MT1-MMP act inh RFP	HIV Env fusion	CSC inhib
49	COc1ccc(C(=O)NC(=O)COC(=O)C2COc3ccccc3O2)cc1 (stereo unspecified)	35	-3	-48	-3
50	CC(C)Nc1ccc(C(CC(N)=O)NC(=O)c2ccc(Br)cc2)cc1[N+](=O)[O-] (stereo unspecified)	5	7	0	26
51	COc1ccc(SCC(=O)Nc2ccc(N3CCN(C)CC3)c(F)c2)cc1	-6	4	25	54
52	O=S1(=O)CCN(Cc2ccccn2)CC1	4	1	-15	-12
53	CCOc1ccc(S(=O)(=O)N2CCOCC2)cc1NC(=O)C1=COCCO1	.	1	-13	-1
54	COc1ccc(C)cc1NC(=O)CN1C(=O)c2cccc3cccc1c23	-15	-6	16	-3
55	N#Cc1ccc(OCC(=O)NNC(=S)NC2CCCCC2)cc1	.	-4	.	-3
56	CC1(C)CC(=O)N(CC(=O)NCc2ccc(F)cc2)c2ccccc2S1(=O)=O	3	2	0	1
57	Cc1c(NC(=O)CSc2ccc3ccccc3n2)c(=O)n(-c2ccccc2)n1C	.	0	.	6
58	COCCCNC(=S)NNC(=O)c1cc(Cl)c(O)c(Cl)c1	18	11	-3	2
59	COc1ccc(S(=O)(=O)c2c[nH]c(=S)[nH]c2=O)cc1Cl	26	6	-8	-2
60	Cc1cccc(N2CCN(C(=O)CCC(=O)N3CCOc4ccc(Cl)cc43)CC2C)c1 (stereo unspecified)	-8	-14	5	.

no.	MT1-MMP act inh	Rce1 inhib	eIF4H FP inh	UUG fidelity
49	0	i	38	-8
50	16	i	-6	-6
51	-2	i	-3	.
52	-1	i	-6	7
53	0	i	.	-3
54	1	i	-8	0
55	3	.	.	-24
56	3	i	-5	1
57	0	.	.	-11
58	0	i	-1	.
59	2	i	44	-11
60	-1	i	-12	13

# Next part:
no.	SMILES	PABP polyA inh	MT1-MMP act inh RFP	HIV Env fusion	CSC inhib
61	O=C(NCCCN1CCCC1=O)c1ccc2c(=O)n(-c3ccccc3F)c(=S)[nH]c2c1	-4	-1	-5	-3
62	CC(NC(=O)c1ccc(Br)o1)C1CCCO1 (stereo unspecified)	5	4	.	-19
63	CCCN1CCN(C(=O)C2CCN(S(=O)(=O)c3c(C)noc3/C=C/c3ccc(C)cc3)CC2)CC1	-15	-1	10	-17
64	O=C1NC(c2ccc(Cl)c([N+](=O)[O-])c2)Nc2ccccc21 (stereo unspecified)	9	-8	25	-1
65	CCN(C[C@H]1N[C@@](Cc2ccccc2)(C(=O)OC)[C@H]2C(=O)N(C)C(=O)[C@@H]12)C(=O)COC	.	2	-32	-11
66	CSc1ccc(S(=O)(=O)NCC(=O)OCC(=O)N2CC(C)CC(C)C2)cc1[N+](=O)[O-] (stereo unspecified)	.	-3	.	-4
67	CCOC(=O)c1ccc2c(c1)N(CC)C(=O)c1ccccc1S2	.	-5	.	-17
68	O=C(OCCN1CCCCC1)c1cccc(Cl)c1	2	-3	-7	-7
69	CCCCNC(=O)c1ccc2c(SCC(=O)O)c3c(nc2c1)CCCC3	-6	5	15	-2

no.	MT1-MMP act inh	Rce1 inhib	eIF4H FP inh	UUG fidelity
61	0	i	0	1
62	2	i	-2	-15
63	3	i	-5	-15
64	-2	i	-3	.
65	0	.	.	-7
66	-11	i	.	.
67	-3	i	.	52
68	0	i	-6	-22
69	2	i	-2	-7

# From PubChem BioAssay
